# From PubChem
# TRPML1 ag: agonists of human TRPML1 channel; TRPML1-expressing cells, Ca2+ dye fluorescence, FDSS; host cell line not named in the record; reference of the full effect not given here; Q9GZU1; AID 624414; 410,000 tested, 0.12% active; activation, % (test concentration not listed); in the data active = activation above about 50%; inconclusive = about 30% to 50%; inactive = below about 30%; further: 0% is about no effect; the text of the record puts the active cut at 80%
# Target sequence (Q9GZU1 whole entry, looked up): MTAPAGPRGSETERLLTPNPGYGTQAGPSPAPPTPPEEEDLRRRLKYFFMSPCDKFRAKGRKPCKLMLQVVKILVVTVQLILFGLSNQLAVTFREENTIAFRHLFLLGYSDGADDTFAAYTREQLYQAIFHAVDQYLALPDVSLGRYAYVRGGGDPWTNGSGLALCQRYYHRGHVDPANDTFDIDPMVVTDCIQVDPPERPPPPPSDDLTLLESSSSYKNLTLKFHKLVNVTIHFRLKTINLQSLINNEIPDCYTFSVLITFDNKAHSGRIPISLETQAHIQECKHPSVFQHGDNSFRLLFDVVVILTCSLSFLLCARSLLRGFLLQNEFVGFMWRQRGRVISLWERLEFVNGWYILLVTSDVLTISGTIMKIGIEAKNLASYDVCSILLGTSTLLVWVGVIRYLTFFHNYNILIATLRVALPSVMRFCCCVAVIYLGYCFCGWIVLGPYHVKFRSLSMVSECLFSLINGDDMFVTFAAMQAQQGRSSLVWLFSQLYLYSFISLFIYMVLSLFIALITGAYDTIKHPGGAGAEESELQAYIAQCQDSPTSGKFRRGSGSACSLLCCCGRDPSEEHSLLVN
#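 Agonist activity was taken from a 110 s kinetic Ca2+ dye read on the FDSS after pinning compounds onto TRPML1-DL cells. The cells were seeded at 1,500/well with Tet inducer, incubated about 16 h, then dye-loaded at room temperature.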
# CtBP-E1A blk: inhibitors of CtBP/E1A interaction | AlphaScreen GST-E1A/His-CtBP binding, 1536-well; hits give low values; control for the full effect not named in the record | activity change, % (no concentration beside the values) | 340,000 tested, 0.49% active; in the data active means activity change below about -65%; inconclusive means about -30% to -65%; inactive means above about -30%; further: on the % scale 0 is the no-effect control and ±100 the full control effect; compound concentration not given in the record
#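 GST-E1A and His-tagged CtBP (125 nM each as 5X stock) were preincubated with pin-transferred compound for 2 h at 37 °C in the dark, then glutathione donor and nickel acceptor beads were added for 1 h before AlphaScreen reading.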
# PINK1 modulator: PINK1 expression modulation. PINK1 immunofluorescence, high-content cytometry, 24 h. Potency, µM (titrated, usually from 76.6 µM), for inactives: at the top dose activation (PINK1 increase), most hits filed as activators. 410,000 tested, 0.2% active. AID 624263; active = well fitted activation curve with a large enough effect; inconclusive = small, poorly fitted or top-dose-only effect; inactive = flat fitted curve, though single readings scatter; cell line not stated here;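 further: potency means the concentration at half of the fitted maximal effect; % of control where 0% means no effect; nearly all actives have a fitted effect of over 65% in size; a mitochondrial uncoupler was the plate control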
#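 Stable cell line treated 24 h with compounds at 5 concentrations (CCCP controls), then fixed and immunostained for PINK1 plus nuclear and cell stains; PINK1 immunofluorescence quantified by laser-scanning microplate cytometry.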
# Six1-Eya2 blk: Six1/Eya2 interaction inhibition; activity change, % (no concentration beside the values); 360,000 tested, 0.56% active; AlphaScreen GST-Six1/His-Eya2 binding, biochemical; hits give low values; control for the full effect not named in the record; in the data active = activity change below about -65%; inconclusive = about -30% to -65%; inactive = above about -30%; further: on the % scale 0 is the no-effect control and ±100 the full control effect; compound concentration not given in the record
#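 GST-Six1 + His-Eya2 (5X stock: 250/500 nM); Tris pH 8.0, 300 mM NaCl, 0.05% BSA, 0.02% Tween 20; GSH donor/Ni acceptor beads; 1 h 37 °C dark; AlphaScreen readout.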
# D2 PAM: positive allosteric modulators of human D2 dopamine receptor; P14416; DiscoveRx D2 beta-arrestin cells, luminescence, 90 min; 100% = 57 uM dopamine signal; potentiation, % (concentration not given with the values); 360,000 tested, 0.23% active; active = potentiation of 50% or more; inconclusive = 30% to 50%; inactive = 30% or less;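 further: compound concentration not given in the record; tested on top of an EC20 dose of dopamine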
# Target sequence (P14416 whole entry, looked up): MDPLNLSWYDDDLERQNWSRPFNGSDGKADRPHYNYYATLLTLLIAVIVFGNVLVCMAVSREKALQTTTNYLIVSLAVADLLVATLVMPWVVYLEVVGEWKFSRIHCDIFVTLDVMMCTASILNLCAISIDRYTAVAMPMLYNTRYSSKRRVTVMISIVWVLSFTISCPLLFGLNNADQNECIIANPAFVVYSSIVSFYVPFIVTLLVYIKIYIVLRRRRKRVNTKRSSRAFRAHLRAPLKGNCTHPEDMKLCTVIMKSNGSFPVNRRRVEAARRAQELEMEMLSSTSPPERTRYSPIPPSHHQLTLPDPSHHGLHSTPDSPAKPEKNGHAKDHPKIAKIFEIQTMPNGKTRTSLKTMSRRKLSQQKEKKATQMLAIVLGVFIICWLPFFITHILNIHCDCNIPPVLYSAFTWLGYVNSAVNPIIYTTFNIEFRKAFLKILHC
#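 D2 cells co-treated with compound plus 50 nM dopamine (EC20) for 90 min at 37 deg C to detect potentiation. Beta-arrestin recruitment was read as enzyme-fragment luminescence after 1 h at ambient temperature. Full response was set by 57 uM dopamine.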
# D2 ag: human D2 receptor agonism in beta-arrestin assay | DiscoveRx PathHunter D2 beta-arrestin, luminescence, 90 min; 100% = 57 uM dopamine signal | activation, % (no concentration beside the values) | 360,000 tested, 0.084% active; in the data active = activation above about 40%; inconclusive = about 15% to 40%; inactive = below about 15%; further: compound concentration not given in the record; the text of the record calls up to 30% inactive
#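 Agonist mode: compounds alone added to overnight-plated D2 PathHunter cells for 90 min at 37 C, with 57 uM final dopamine (EC100) defining full response. Beta-arrestin recruitment detected by chemiluminescent reagent, read after 1 h at ambient temperature.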
# Active calls of the source: *; ? = inconclusive; / = no result given; & = joins results of further samples; [ ] = remark or other dose. Compounds as they come; any-hit rate near 1.3%.
# Order of values: PINK1 modulator	Six1-Eya2 blk	D2 PAM	TRPML1 ag	D2 ag	CtBP-E1A blk
> COc1cc(/C=C2\SC(=S)N(CC(=O)NC3=NCCS3)C2=O)cc(OC)c1OC
    28µM*	-1	1	-0.1	-1.6	2
> CN(Cc1cccc2ccccc12)C(=O)c1cc(COc2c(F)cccc2F)on1
    0.0%	16	-6	0.0	-0.5	7
> O=S(=O)(c1ccc(Nc2ccc3c(c2)OCO3)nc1)N1CCOCC1
    -1.4%	-12	10	0.8	-1.5	-8
> CC1CCN(C(=S)NCCc2ccccc2)CC1
    -0.8%[38.3 µM]	3	-10	2.6	-2.0	9
> COc1ccc2c(=O)c(C(=O)NCCc3ccccc3)c[nH]c2c1
    2.0%	-6	-1	-0.9	8.5	/
> Cc1ccc(C(=O)OCn2nnc3ccccc3c2=O)cc1[N+](=O)[O-]
    0.3%	-1	-20	2.0	0.3	-6
> O=c1c2ccccc2nc(-c2ccc([N+](=O)[O-])cc2)n1O
    -1.0%	4	-7	-1.0	2.4	9
> COc1ccc(Cl)cc1NC(=O)CN(C)C(=O)Cn1c(=O)oc2ccccc21
    -0.9%	4	-23	0.6	-4.5	-14
> CN(C)c1ccc(NC(=O)c2ccc3c(c2)nnn3C)cc1
    3.0%	-2	-3	0.4	1.7	/
> CCOC(=O)c1c(NC(=O)CN2C(=O)NC3(CCCCC3C)C2=O)sc(C(=O)N(C)C)c1C (stereo not given)
    1.4%	5	-13	0.2	2.5	0
> C/C(=N\Nc1nc(N)cc(Cl)n1)c1cccc([N+](=O)[O-])c1
    4.8%[38.3 µM]	-1	-4	-0.1	3.2	-9
> CCOC(=O)N1CCN(Cc2nc(Cc3cccc(C(F)(F)F)c3)no2)CC1
    1.2%	5	-5	1.2	3.9	-7
> Nc1nc(N)c2cc(S(=O)(=O)c3cccc(C(F)(F)F)c3)ccc2n1
    6.6%	-1	-2	-0.2	-1.0	1
> O=C(CSCCN1C(=O)c2ccccc2C1=O)Nc1ccc2ccccc2c1
    1.0%	14	-3	0.9	-3.0	-22
> O=C1NC(=O)/C(=C\c2ccc(OCc3ccccc3)cc2)S1
    3.6%	0	-5	1.3	5.6	-6
> CC1=CC(C2CC(=O)N(c3ccc(C)cc3)C2=O)CC2C(=O)N(c3ccc(C)cc3)C(=O)C12 (stereo not given)
    -0.3%	13	-7	0.5	-4.4	1
> CS(=O)(=O)N1CCc2cc(S(=O)(=O)N3CCN(Cc4ccc5c(c4)OCO5)CC3)ccc21
    0.7%[38.3 µM]	-7	4	0.7	2.9	-10
> Cc1nn(C)c(Cl)c1CN1CCCC(C(=O)Nc2ccc(-c3cscn3)cc2)C1 (stereo not given)
    -0.3%	-14	-26	0.0	-2.5	-17
> O=C(NCCc1ccccc1)C(=O)NCC1OCCCN1S(=O)(=O)c1ccc(F)cc1 (stereo not given)
    -0.8%	2	11	0.7	1.0	3
> CN(C(=O)COC(=O)/C=C/c1ccc2ccccc2n1)C1CCS(=O)(=O)C1 (stereo not given)
    1.1%	-2	-2	1.2	1.3	-26

# Records listed so far shown as hits in PINK1 modulator.
Molecule	PINK1 modulator	Six1-Eya2 blk	D2 PAM	D2 ag	CtBP-E1A blk
COc1cc(/C=C2\SC(=S)N(CC(=O)NC3=NCCS3)C2=O)cc(OC)c1OC	28µM*	-1	1	-1.6	2

# Back to the main list, repeating the two entries before the break.
# Order of values: PINK1 modulator	Six1-Eya2 blk	D2 PAM	TRPML1 ag	D2 ag	CtBP-E1A blk
> O=C(NCCc1ccccc1)C(=O)NCC1OCCCN1S(=O)(=O)c1ccc(F)cc1 (stereo not given)
    -0.8%	2	11	0.7	1.0	3
> CN(C(=O)COC(=O)/C=C/c1ccc2ccccc2n1)C1CCS(=O)(=O)C1 (stereo not given)
    1.1%	-2	-2	1.2	1.3	-26
> Cc1ccccc1N1CCN(C2CCCN(C(=O)c3ccc(Cl)s3)C2)CC1 (stereo not given)
    -2.4%	-6	-47	3.5	-0.9	-1
> COc1ccc(NC(=O)C[C@H]2C(=O)N(Cc3ccccc3)C[C@@H]2CSC)cc1
    0.3%	-2	/	/	-0.4	0
> CCOc1ccccc1NC(=S)NCc1cccn1C
    1.3%	8	-4	0.8	-4.9	0
> Cc1ccc(Cc2c(-c3ccc(C)cc3)nc3cc(C)ccn23)cc1
    ?	-16	-17	2.3	-6.6	-5
> COc1ccc2c(c1)[C@H]1[C@H](CO2)[C@H](c2ccccc2)[C@]2(C)C(=O)N[C@H](C)C(=O)N12
    -0.9%	3	-10	-0.3	-8.0	2
> COc1cccc(CC(NC(C)=O)C(=O)NC2CCN(c3c(Cc4ccccc4)c(C)nc4ncnn34)CC2)c1OC (stereo not given)
    2.5%	4	3	-0.7	-3.2	7
> CCC(C)(C)NC(=O)CN(C(=O)C(=O)Nc1ccc2c(c1)OCCO2)C1CC1
    0.0%	0	-6	-0.6	-16	6
> COc1cccc(NC(=O)c2ccc3c(c2)CCN3S(C)(=O)=O)c1
    0.9%&1.0%	-2	-1	-0.2	0.4	/
> COC(=O)c1cc(-c2ccccc2)n(CC(=O)O)c1C
    -0.4%	-9	-17	0.3	0.1	-1
> Cc1noc(C)c1C(=O)N1CCN(c2ccccc2O)CC1
    10%	-2	-20	0.6	-6.4	1
> Cc1ccc(-c2nc(C(Cl)Cl)c3ccccc3n2)cc1
    -1.5%	-2	-3	/	-12	-2
> CCCCCCCNC(=O)C1(CC2CC(c3cccc(Br)c3)=NO2)CCN(C(=O)OC(C)(C)C)CC1 (stereo not given)
    4.7%	-1	-5	0.9	-2.5	6
> CCCCn1nnnc1C1(C)CCC(=O)N1CCOc1ccccc1 (stereo not given)
    -0.4%	6	/	-0.8	/	0
> C=CCn1c(O)c(C=Nc2ccc(CN3CCCCC3)cc2)c(=O)[nH]c1=S
    0.1%	-18	-9	-0.2	-2.7	-21
> CCn1c(SCC(=O)NC2(C#N)CCCCC2)nc2ccccc2c1=O
    0.9%	4	-6	-1.2	2.3	4
> COc1ccc(S(=O)(=O)Nc2ncccn2)cc1
    3.8%	-11	-25	-0.9	-4.7	-4
> O=C(O)Cc1ccc(NS(=O)(=O)c2ccccc2Cl)cc1
    -1.1%	3	-4	-0.5	0.1	9
> Cc1ccc2c(CSc3nc4nc(C)cc(C)n4n3)cc(=O)oc2c1
    2.0%	-7	-5	-0.3	-2.3	1
> CC(C)CC(=O)c1c[nH]c(C(=O)NCc2ccc(F)cc2)c1
    2.0%	-3	-2	-0.4	1.5	/
> COCCn1c(SCC(=O)Nc2cccc(OC)c2)nnc1-c1ccc(Cl)cc1
    0.4%[38.3 µM]	4	-10	1.5	-1.0	10

# New compounds follow:
# Order of values: PINK1 modulator	Six1-Eya2 blk	D2 PAM	TRPML1 ag	D2 ag	CtBP-E1A blk
> O=C(CN1C(=O)NC2(CCCC2)C1=O)NNC(=O)c1ccc(F)cc1
    -0.4%	-4	-8	2.9	1.0	9
> CCCN(Cc1nnc(-c2cccs2)o1)C(=O)c1cc(S(=O)(=O)N2CCOCC2)ccc1C
    -1.3%	-1	-1	-0.2	7.4	1
> O=C(N/N=C/c1cccnc1)c1cc(Br)ccc1O
    -2.9%	3	-4	1.3	1.6	-4
> O=C(/C=C/c1ccccc1)Nc1cccc(C(=O)N2CCCCC2)c1
    0.5%	-7	-13	1.8	2.8	4
> Cc1ccnc(NC(=O)C2CCN(S(=O)(=O)c3ccc(C)c(C)c3)CC2)c1
    -1.5%	-11	-67	2.2	-4.0	0
> CCCN(CCC)C(=O)CC(c1ccccc1)c1ccc(C)cc1O (stereo not given)
    1.0%[38.3 µM]	1	-10	1.5	0.6	0
> O=C(Cn1c(=O)oc2cc(S(=O)(=O)N3CCc4ccccc43)ccc21)N1CCCCC1
    1.2%	-5	-2	-0.5	-0.5	4
> CN1C(=O)N(C)C2(C)CC1(C)N(C)C(=O)N2C
    1.9%	4	-3	4.1	-3.5	-3
> Cc1nnc(SCC(=O)Nc2ncc3c(n2)CC(C)(C)CC3=O)s1
    -3.0%	25	8	1.7	-2.8	0
> CN(C(=O)CN1C(=O)/C(=C/c2ccccc2F)SC1=S)C1CCS(=O)(=O)C1 (stereo not given)
    0.0%	-1	-9	-0.2	0.8	3
> O=C(N/N=C/c1cccc([N+](=O)[O-])c1)C1CC(=O)N(c2ccc(Br)cc2)C1 (stereo not given)
    0.4%	-2	-5	2.7	-2.4	3
> COC(=O)c1cc(-c2cccc([N+](=O)[O-])c2)c2c(=O)[nH]c(=O)n(C)c2n1
    9.6%	14	4	0.3	-1.6	-1
> CN(C(=O)COC(=O)c1c2c(nc3ccccc13)/C(=C/c1cccc([N+](=O)[O-])c1)CCC2)C1CCS(=O)(=O)C1 (stereo not given)
    2.7%	-10	-31	0.7	-1.9	-6
> CCCC(=O)Nc1nc2c(s1)COc1ccccc1-2
    0.4%	-1	-3	0.1	-3.1	-1
> COc1ccccc1NC(=O)CN(Cc1ccco1)C(=O)c1ccc(=O)[nH]c1
    -1.5%	14	4	-0.2	0.7	-25
> CCOc1c(CNCc2ccc(C(=O)O)cc2)cccc1OC
    7.1%	-2	-3	1.0	-0.1	5
> COCCn1c(SCC(=O)Nc2ccc(OC)c(S(N)(=O)=O)c2)nc2ccccc2c1=O
    -0.2%	5	-2	0.9	0.4	7
> O=C(CCC1CCCN(C(=O)CCN2CCCCC2=O)C1)NCc1ccccc1F (stereo not given)
    1.8%	31	-1	0.2	-3.1	2
> CC1CCCCC1NC(=O)COC(=O)c1cc(=O)c2ccccc2o1 (stereo not given)
    -1.1%	-2	-2	-0.1	-2.0	-7
> O=C(COC(=O)CN1C(=O)C(=O)c2ccccc21)OCN1C(=O)c2ccccc2C1=O
    2.8%	6	-43	0.3	-5.2	6

# The results go on:
# Order of values: PINK1 modulator	Six1-Eya2 blk	D2 PAM	TRPML1 ag	D2 ag	CtBP-E1A blk
> Cc1nn(-c2ccccc2)c2nc(C(Cl)(Cl)Cl)[nH]c(=O)c12
    5.3%	-4	5	1.6	5.0	-4
> CCO/C=N/c1c(C#N)c(CC#N)nn1-c1ccccc1
    5.9%[38.3 µM]	-5	15	-0.8	-0.3	-15
> COc1ccc(S(=O)(=O)Cc2ccc(C(=O)NCc3ccccc3)o2)cc1
    0.4%	0	-5	-0.5	-1.2	2
> CC12CCC(C(=O)Nc3ccccc3N3CCOCC3)(CC1=O)C2(C)C (stereo not given)
    0.1%	-4	-6	-1.0	-3.1	5
> Cc1ccc(N(C(=O)CNC(=O)c2ccco2)C(C(=O)NC2CCCCC2)c2cccnc2)cc1F (stereo not given)
    1.0%	-1	-3	0.3	-2.0	-13
> CCN(C(=O)CN1C(=O)S/C(=C\c2ccccc2Cl)C1=O)C1CCS(=O)(=O)C1 (stereo not given)
    1.1%	-1	-5	-0.4	-3.2	-1
> Brc1cccc(CNCC2CCCO2)c1 (stereo not given)
    0.4%	-11	-9	0.7	1.5	15
> O=c1c2ccccc2nc(CSc2nnnn2-c2ccccc2)n1-c1cccc(C(F)(F)F)c1
    ?	0	3	-0.5	0.0	-20
> Cc1cc(-c2ccccc2C(=O)O)on1
    0.5%	0	-13	-0.5	-2.2	-8
> CCc1ccccc1N(CC(=O)N1CCCCCC1)S(C)(=O)=O
    2.5%	3	4	0.1	-3.0	6
> CC(C)(C=O)Cc1cc(C(C)(C)C)c(O)c(C(C)(C)C)c1
    ?	8	-3	0.1	-4.4	11
